Rango complex inh: Rango-importin beta binding inhibition; Q14974; Rango CFP/YFP FRET sensor + importin beta, 45 min; Potency, µM (series often up to 92.2 µM), inactives show at the top dose inhibition of complex formation; 0.031% of 340,000 active; AID 540263; active = rising FRET ratio curve, often small or poorly fitted; inconclusive = mostly compound fluorescence or quenching in the first reads; inactive = flat curves in all reads;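 also: potency is read from the fitted curve at half-maximal effect; 0% = DMSO wells and 100% = buffer wells lacking importin beta; nearly all actives have a fitted effect of over 15% in size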
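FRET biosensor (snurportin 1 IBB flanked by EYFP and cerulean), 50 nM, with compound 5 min, then 0.125 microM importin beta in PBS, 1 mM DTT, 0.02% Tween-20, 0.1% BSA. CFP/YFP ratio read after 45 min at room temperature; pre-read flags interference.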
GLA inh pH 4.5: alpha-galactosidase A (human) inhibition, pH 4.5; purified enzyme, 4-MU-alpha-Gal fluorescence, pH 4.5; P06280; activity change, negative = inhibition, % at 105 µM; AID 1467; 230,000 tested, under 10 active; inconclusive = small, poorly fitted or top-dose-only inhibition, or a rising curve; inactive = flat fitted curve, though single readings scatter; no compound was filed as active;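 also: 0% = full activity with enzyme and -100% = basal without enzyme; dose as in the result columns while the protocol names 77 µM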
Target sequence (P06280 whole entry, looked up): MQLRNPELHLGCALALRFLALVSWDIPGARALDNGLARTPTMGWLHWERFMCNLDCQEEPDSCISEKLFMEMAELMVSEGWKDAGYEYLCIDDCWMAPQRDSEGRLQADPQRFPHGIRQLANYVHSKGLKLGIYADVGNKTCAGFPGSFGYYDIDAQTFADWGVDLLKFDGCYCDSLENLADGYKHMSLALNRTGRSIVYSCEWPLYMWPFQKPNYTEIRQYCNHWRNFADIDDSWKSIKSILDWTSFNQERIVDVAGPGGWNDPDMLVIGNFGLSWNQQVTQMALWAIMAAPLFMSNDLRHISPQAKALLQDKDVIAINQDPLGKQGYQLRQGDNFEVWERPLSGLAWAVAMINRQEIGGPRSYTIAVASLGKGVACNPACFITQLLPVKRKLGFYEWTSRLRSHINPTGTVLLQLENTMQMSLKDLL
miR-21 reporter: raises the signal of a miR-21 reporter; HeLa miR-21 FLuc reporter, luciferase, 48 h; Potency, µM (series often up to 38.3 µM), inactives show at the top dose reporter change, positive = more light; 340,000 tested, under 10 active; AID 2288; active = well fitted rising curve with a large enough effect; inconclusive = small, poorly fitted or top-dose-only effect; inactive = no such curve, though single readings can be large or run the other way;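 also: % of control where 0% means no effect; miR-21 action dims this reporter so a rising signal means less miR-21 action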
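HeLa cells endogenously expressing miR-21, stably carrying CMV-driven firefly luciferase with a downstream miR-21 binding site, 2000 cells/well. Titrations up to approximately 40 uM, 48 hours; luciferase luminescence read.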
Rango dissoc inh: inhibition of RanGTP-driven Rango-importin beta dissociation. O95149+P62826. Biochemical FRET Rango-importin beta, RanGTP-induced dissociation. Potency, µM (doses to about 46.1 µM), without a hit: at the top dose activity change, negative = inhibition. 0.071% of 340,000 active; active means falling FRET ratio curve, often poorly fitted, with flat reads before Ran was added; inconclusive means other falling curves, or compound fluorescence or quenching; inactive means flat or rising ratio curve;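 also: potency is read from the fitted curve at half-maximal effect; % of control where 0% means no effect; nearly all actives have a fitted effect of over 45% in size; -100% = wells without RanGTP and RCC1; the record marks most hits as doubtful in a second field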
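Rango (0.1 uM)–importin beta (0.25 uM) complex; RanGTP-RCC1 trigger; 45 min RT; CFP/YFP FRET read.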
An asterisk follows results filed as active; ? = inconclusive; nt = no result given; & = joins results of further samples. The list is partial; count on the stated rates, not on these rows.

Second line of a record: Rango complex inh, GLA inh pH 4.5, miR-21 reporter, Rango dissoc inh
O=C(O)/C=C/C(=O)Nc1ccc(Cl)cc1C(=O)c1ccccc1
→ -3.5%, -16, 1%, -12%
CCN(CC)CCCC1(CN)OCCc2ccccc21 (centres undefined)
→ -1.6%, 9, -2%, -10%
O=[N+]([O-])c1ccccc1OCCCn1cnc2ccccc21
→ -5.8%, -20, -75%, 4%
CNC(=O)NNC(=O)c1csc(Cc2c(Cl)sc3ccc(Cl)cc23)n1
→ -4.4%, 2, -8%, 8%
Clc1ncc2[nH]cnc2n1
→ -1.3%, -1, 0%, -15%
CCc1ccccc1NC(=S)NCc1cccn1C
→ ?, -11, -4%, 1%
CCOC(=O)c1c(NS(=O)(=O)c2ccc(Br)cc2)sc2c1CCC2
→ -4.6%, nt, nt, ?
CCOC(=O)c1[nH]c2ccccc2c1NC(=O)c1ccc(S(=O)(=O)N2CCCC2)cc1
→ 2.1%, -1, -1%, 1%
COCCn1c(C)cc(C(=O)CSc2n[nH]c(N)n2)c1C
→ -2.4%, -3, -33%, 2%
CCOc1ccc(NC(=O)COC(=O)C2CCC(=O)N2)c([N+](=O)[O-])c1 (centres undefined)
→ 1.5%, nt, nt, -3%
Cn1c(=O)c2c(n(Cc3ccccc3)c1=O)NC(=O)C2CC(=O)NCc1cccc(Cl)c1 (centres undefined)
→ -0.9%, 2, 0%, 10%
COc1cccc(C(=O)Nc2ccc(S(=O)(=O)N3CCN(C)CC3)cc2)c1
→ -0.1%, nt, -7%, 1%
CCOc1ccc2nc(SCc3ccc(F)cc3)sc2c1
→ -0.3%, -2, -33%, -14%
CC(C)CN1CCC(CN(C)Cc2nc(-c3cnccn3)no2)CC1
→ 3.6%, -3, -1%, -9%
O=C(Nc1ccccc1Cl)NC1(C(=O)N2CCCCC2)CCCCC1
→ -0.5%, -2, 1%, 1%
C/C(=C/CCC(C)C1CCC2(C)C3CCC4C(C)(C)C(=O)CCC4(C)C3=CCC12C)C(=O)O (centres undefined)
→ nt, -4, ?, nt
O=C1NCC(COCc2ccccc2)O1 (centres undefined)
→ 2.7%, 5, -5%, -6%
COCCNC(=O)c1ccc(Cn2c(SCC(=O)NCC3CCCO3)nc3ccc(Br)cc3c2=O)cc1 (centres undefined)
→ -2.7%, nt, 2%, 0%
CC(=O)c1ccc(N2CCN(C(=O)C3(S(=O)(=O)c4ccc(Cl)cc4)CC3)CC2)cc1
→ -1.2%, 2, 2%, 0%
O=C(O)Cc1ccc(NC(=O)c2ccc(NC(=O)C3CC3)cc2)cc1
→ 0.0%, nt, 1%, 1%

The closing three entries of the part above lead into the next.
Second line of a record: Rango complex inh, GLA inh pH 4.5, miR-21 reporter, Rango dissoc inh
COCCNC(=O)c1ccc(Cn2c(SCC(=O)NCC3CCCO3)nc3ccc(Br)cc3c2=O)cc1 (centres undefined)
→ -2.7%, nt, 2%, 0%
CC(=O)c1ccc(N2CCN(C(=O)C3(S(=O)(=O)c4ccc(Cl)cc4)CC3)CC2)cc1
→ -1.2%, 2, 2%, 0%
O=C(O)Cc1ccc(NC(=O)c2ccc(NC(=O)C3CC3)cc2)cc1
→ 0.0%, nt, 1%, 1%
O=C(/C=C/c1ccccc1[N+](=O)[O-])N1CCOCC1
→ 0.7%, nt, 4%, 9%
O=C(NCCN1CCOCC1)c1cccc(S(=O)(=O)N(Cc2ccccc2)c2ccccc2)c1
→ 4.3%, nt, nt, -2%
Cc1ccc(NC(=O)COc2ccc3c(c2)OCO3)c(C)c1
→ -4.5%, nt, nt, 15%
Cc1ccc(S(=O)(=O)CC(O)COc2ccc(F)cc2Cl)c(C)c1 (centres undefined)
→ 0.5%, 5, -9%, 0%
COC(=O)c1ccc(OCCOc2ccccc2)cc1
→ -2.8%, -2, -47%, 2%
COc1ccc(N2CCN(C3CCCN(Cc4cccc(C(C)=O)c4)C3)CC2)cc1 (centres undefined)
→ 8.6%, nt, 11%, 4%
COc1ccc(C(C)=O)cc1COC(=O)c1ccc(S(=O)(=O)N(C)C)cc1
→ -0.9%, -6, 6%, 2%
CCOC(=O)c1cc(-c2ccccc2C)n(CC2CC(c3ccc(OC)cc3)=NO2)n1 (centres undefined)
→ 11%, nt, nt, 0%
O=C(CN1CCN(S(=O)(=O)c2ccccc2)CC1)NC(=O)NCc1ccco1
→ 4.6%, 5, 3%, 16%
Cc1cccc(OCC(=O)N(Cc2ccc(N(C)C)cc2)C2CCS(=O)(=O)C2)c1 (centres undefined)
→ 0.7%, -7, -1%, 26%
O=C(c1cccnc1)N1N=C(C2CCCCC2)CC1(O)C(F)(F)F (centres undefined)
→ -3.5%, 0, 1%, 16%
COC(=O)c1cc(Br)c(=O)n(-c2ccc(F)cc2)c1
→ -4.1%, -14, -3%, -9%
O=C(NC1CCCCC1)C(c1ccc(F)cc1)N(Cc1ccc2c(c1)OCO2)C(=O)c1cnsn1 (centres undefined)
→ 0.2%, -6, -8%, 10%
Cc1ccc(S(=O)(=O)Nc2ccc3c(c2)ncn3C(C)(C)C)cc1
→ -2.9%, -9, -1%, -14%
Cc1ccc(NC(=O)CN(C)S(=O)(=O)c2ccc3c(c2)c(=O)n(C)c(=O)n3C)cc1
→ -0.4%, nt, 0%, 0%
Cc1nc(-c2ccc(F)cc2)c(CC(=O)Nc2cc(S(=O)(=O)N3CCCCC3)ccc2C)s1
→ -1.9%, nt, nt, 6%
CC1=CC(=O)C=CC1(C)C(Cl)(Cl)Cl (centres undefined)
→ 0.2%, -6, -6%, 2%
CC1=C(C(=O)OCc2ccccc2)C(c2cccc([N+](=O)[O-])c2)NC(=O)N1C (centres undefined)
→ 0.2%, nt, 1%, -4%
CCN(Cc1ccccc1)C(=O)C(=O)c1cn(CC(=O)N2CCCC2)c2ccccc12
→ 0.4%, nt, 6%, -13%
CCn1nnnc1SCC(=O)c1cc(OC)ccc1OC
→ -5.6%, 5, -13%, 17%

Next part
Second line of a record: Rango complex inh, GLA inh pH 4.5, miR-21 reporter, Rango dissoc inh
C[C@H](NC(=O)c1ccc2ccccc2c1)C(=O)N1CCC2(CC1)NCCc1[nH]cnc12
→ 1.3%, nt, 1%, 4%
COc1cccc(CNC(=O)C2CCC(=O)N(C3CC3)C2)c1OC (centres undefined)
→ 0.2%, nt, -3%, 17%
O=C(NCC(=O)N1CC(O)CC1C(=O)N1CCCC1C(=O)OCc1ccccc1)OCc1ccccc1 (centres undefined)
→ 1.2%, 2, -1%, 9%
CC(C)NC(=O)C1CCN(C(=O)c2cc3sccc3n2Cc2ccc(F)cc2)CC1
→ -1.4%, -5, 13%, 12%
O=C(CCNC(=O)c1ccccc1Cl)Nc1nnc(C2CC2)s1
→ -0.1%, -10, -2%, 7%
Cc1ccc(OCC(=O)NCCNC(=O)c2cnccn2)cc1
→ 3.5%, nt, -1%, 18%
O=C(NCc1ccc(F)cc1)C1CCCN(S(=O)(=O)c2ccc(Br)s2)C1 (centres undefined)
→ ?, nt, 9%, 2%
CC(C)(C)c1nnc2sc(SCC(=O)c3ccccc3)nn2c1=O
→ 0.8%, -3, -6%, -15%
COc1ccccc1S(=O)(=O)Cc1ccc(C(=O)NCCCN2CCN(c3ccc(F)cc3)CC2)o1
→ 6.1%, nt, 13%, -14%
O=C(CCl)Nc1cccc2ncccc12
→ ?, -9, ?, 2%
Cc1nnc(NC(=O)COc2ccccc2)s1
→ -4.4%, 0, -22%, 20%
O=C(c1ccc2c(c1)N(Cc1ccc(F)cc1)CCS2)N1CCOCC1
→ 0.5%, nt, 1%, -9%
NC(=O)CC(NC(=O)c1ccccc1)c1ccc(N2CCC(Cc3ccccc3)CC2)c([N+](=O)[O-])c1 (centres undefined)
→ -0.3%, nt, 24%, 1%
C=CC[C@@H](CC(=O)N[C@H](CO)Cc1ccccc1)C(=O)N[C@@H](COC(=O)[C@@H](CC=C)CC(=O)OC(C)(C)C)Cc1c[nH]c2ccccc12
→ 0.4%, nt, nt, 17%
COc1ccccc1NS(=O)(=O)c1cc(NC(=O)C(C)C)ccc1N1CCCCC1
→ -3.7%, 0, -1%, 30%
CCOC(=O)c1ccc(NC(=O)C2CC2)cc1
→ -1.7%, 5, -39%, -11%
CC(C)CN1CCC(=O)NC1=S
→ 0.2%, nt, nt, -1%
CCOc1cc(/C=N/O)ccc1OCc1ccccc1F
→ -2.0%, -6, -68%, -2%
Cn1c(O)c(N=Nc2ccc(F)cc2)c2ccccc21
→ ?, 4, -19%, -11%
CC(C)(CNC(=O)c1ccc(S(=O)(=O)Nc2ccc(Cl)cc2)cc1)N1CCOCC1
→ 0.0%, nt, nt, -5%

As a short view, some entries already given.
Second line of a record: Rango complex inh, GLA inh pH 4.5, miR-21 reporter, Rango dissoc inh
C[C@H](NC(=O)c1ccc2ccccc2c1)C(=O)N1CCC2(CC1)NCCc1[nH]cnc12
→ 1.3%, nt, 1%, 4%
COc1cccc(CNC(=O)C2CCC(=O)N(C3CC3)C2)c1OC (centres undefined)
→ 0.2%, nt, -3%, 17%

The list goes on:
Second line of a record: Rango complex inh, GLA inh pH 4.5, miR-21 reporter, Rango dissoc inh
S=c1[nH]nc(COc2ccc(Cl)cc2)n1Cc1ccccc1
→ 4.8%, 6, 1%, 9%
O=C(O)CCN(Cc1ccccc1)S(=O)(=O)c1c(Cl)cccc1Cl
→ 6.4%, 8, -10%, 44%
Cc1ccc(S(=O)(=O)NCCc2nnc3ccc(SCC(=O)Nc4nc(C)cs4)nn23)cc1
→ 0.7%, 4, -5%, -10%
CC(C)(C)NC(=S)N/N=C/c1cccnc1
→ -0.2%, -8, -5%, -5%
CC(C)(C)c1cc(CCC(=O)NCc2ccncc2)cc(C(C)(C)C)c1O
→ 0.4%, nt, -8%, -10%
Cc1ccc(S(=O)(=O)N2CCC(=O)N(C(COCc3cccc(Cl)c3)C(C)C)CC2)cc1 (centres undefined)
→ 0.1%, -5, -11%, -4%
CC1=C(C(=O)Nc2cc(C)ccc2C)C(c2cccs2)NC(=S)N1 (centres undefined)
→ -2.6%, 5, -1%, 7%
COc1cc(/C=N/NC(=O)c2cc(-c3cccc(OC(C)C)c3)nc3ccccc23)ccc1O
→ 5.2%, nt, nt, 0%
CCOC(=O)C(C(=O)OCC)C(Nc1cccc(Br)c1)c1ccccc1 (centres undefined)
→ -1.3%, 5, ?, -9%
Cc1ccc(S(=O)(=O)N2CCOCC2)cc1NC(=O)CNC(C)c1ccccc1 (centres undefined)
→ 0.1%, nt, nt, -11%
CCOc1ccc(NC(=O)CN(C)C(=O)c2ccccc2OCc2c(C)noc2C)cc1OCC
→ -0.9%, nt, nt, 1%
O=C(N/N=C/C(Cl)=C\c1ccccc1)c1ccco1
→ 6.3%, -1, -79%, -2%
S=c1nccc(-c2cccs2)[nH]1
→ -0.8%, 3, -2%, -15%
c1ccc(-c2ccccn2)nc1
→ ?, 1, -5%, 0%
CCOc1nc2ccccc2nc1C
→ -0.2%, 1, -1%, -5%
Cc1c(C)n(C)c2ccc(C(=O)NCCN3CCOCC3)cc12
→ 0.9%, nt, -7%, -7%
Cc1ccc(S(=O)(=O)N2CCN(S(=O)(=O)N3CCCCC3)CC2)cc1C
→ 1.0%, nt, -3%, 7%
COc1ccc(-c2cc(=O)oc3cc(OCC(=O)N(C)C)ccc23)cc1
→ ?, nt, -5%, -20%
CCOc1ccc(C2CC(=O)NC(SCC(=O)OC)=C2C#N)cc1 (centres undefined)
→ 2.0%, 1, -9%, -11%
CCOc1ccc(OCCOCCOc2c(Cl)cccc2Cl)cc1
→ 4.1%, nt, nt, -9%

Further records follow.
Second line of a record: Rango complex inh, GLA inh pH 4.5, miR-21 reporter, Rango dissoc inh
CC(C)(C)c1ccc(-c2nc3cc(N)ccc3o2)cc1
→ ?, nt, -34%, -8%
COc1cc(/C=C2\SC(N3CCCCC3)=NC2=O)cc(OC)c1OC
→ -0.3%, nt, -3%, 2%
COc1ccc(C(=O)COC(=O)c2ccc(Cl)nc2)c(OC)c1
→ 0.1%, nt, nt, -3%
O=S(=O)(c1ccccc1)N1CCN=C1SCc1ccc(Cl)cc1
→ 0.1%, -5, -5%, 0%
CCC(=O)N(Cc1cc2cc(OC)ccc2[nH]c1=O)c1ccccc1C
→ 1.4%, 6, -5%, -8%
CCCCC1=CC2=CC(=O)C(C)(OC(=O)CCc3ccccc3)C(=O)C2=CO1 (centres undefined)
→ ?, 1&-11, 2%, ?
